Screening data deposited in PubChem BioAssay by National Center for Advancing Translational Sciences (NCATS).
VACV mCherry inh: inhibitors of vaccinia virus infection (mCherry reporter signal) | Vaccinia virus mCherry reporter infection, fluorescence; about a quarter of the inactives have no number | Potency, µM (highest dose often 36.5 µM), inactives show at the top dose activity change, negative = inhibition, most hits filed as inhibitors | 310,000 tested, 0.63% active | AID 720579; active = well fitted inhibition curve with a large enough effect; inconclusive = small, poorly fitted or top-dose-only effect; inactive = no such curve, though single readings can be large or run the other way; tested in A549 cells; further: nearly all actives have a fitted effect of over 35% in size; inactives centre near -10
VACV Venus inh: vaccinia inhibition (Venus reporter) | Vaccinia virus Venus reporter expression, fluorescence | Potency, µM (doses to about 36.5 µM), without a hit: top-dose activity change, negative = inhibition, hits mostly inhibitors | 330,000 tested, 0.46% active | AID 720580; active means well fitted inhibition curve with a large enough effect; inconclusive means small, poorly fitted or top-dose-only effect; inactive means no such curve, though single readings can be large or run the other way; tested in A549 cells; further: nearly all actives have a fitted effect of over 30% in size; inactives centre near -10
* marks the source's active call; other numbers are inactive results; i = inactive; ? = inconclusive; · = not tested or not shown; & = joins results of further samples; [ ] = another dose, or the depositor's remark. On the % scale 0 is the no-effect control and ±100 the full control effect; potency means the concentration at half of the fitted maximal effect.

Results follow in this order: VACV mCherry inh, VACV Venus inh
O=S(=O)(/N=C(/Nc1ccc(Cl)c(S(=O)(=O)Nc2ccccc2Cl)c1)c1ccc(F)cc1)c1ccccc1
→ ?, 6%&-9%
O=C(Nc1ncc(Cc2cccc(Cl)c2)s1)c1cccs1
→ -28%, ?
NCCc1c[nH]c2ccc(C(N)=O)cc12
→ -21%&-3%, -18%&-12%
CCC(CC)c1nnc(NC(=O)c2ccc3c(c2)OCO3)s1
→ -12%, -3%
O=C(NCCCN1CCN(c2ccccc2F)CC1)c1nnc(Cc2ccc(Cl)cc2Cl)o1
→ -25%, -27%
N=c1nc(-c2ccccc2)ccn1O
→ i, -17%
COc1ccc(C(C#N)=Cc2ccc(OC)c(OC)c2)cc1
→ -17%, -28%
OC(c1ccc(Cl)c(Cl)c1)c1ncc(-c2ccc(Cl)cc2)[nH]1 (stereo not given)
→ i, -8%
O=C(COC(=O)c1ccc[nH]c1=O)NC1CCCCCCC1
→ i, -3%
CCOC(=O)N1CCc2c(sc(NCc3ccc(N(C)C)cc3)c2C(=O)Nc2ccccc2OCC)C1
→ -29%, -16%
CC(C)(C)OC(=O)C[C@H]1C/C=C\C[C@@H](CC(=O)N[C@H](CO)Cc2ccccc2)C(=O)N2CCC[C@H]2COC1=O
→ -22%, -2%
C/C(=N\NC(=O)CNc1cccc2ccccc12)c1ccccc1
→ ?, -17%
COc1ccc(/C=C2\N=C3CCCCCN3C2=O)cc1
→ i, -9%
Cc1csc(-c2cc(C(=O)NCc3ccc(F)cc3)n[nH]2)c1
→ -7%, 3%
C#CCOCCOCCOCCNc1nc(N2CCN(C(=O)Cn3cc(CCO)nn3)CC2)nc(N2CCN(C(=O)[C@H]([C@@H](C)O)n3cc(CCCCN)nn3)CC2)n1
→ -6%, -14%
Cc1ccccc1NC(=O)CCC(=O)N/N=C/c1ccncc1
→ -28%, -12%
CCCCC1(Br)C(=O)N(c2ccccc2)N(c2ccccc2)C1=O
→ 0%, -15%
O=C(Nc1cnn(Cc2ccc(F)cc2)c1)c1cnn2c(C(F)F)cc(-c3ccccc3)nc12
→ i, -10%
Cc1nnc(SCC(=O)NC2CCCCC2)s1
→ -2%, -21%
O=C(NCCN1CCOCC1)C1CC(=O)N(c2ccc(F)c(Cl)c2)C1 (stereo not given)
→ -10%, -9%
Cc1ccc(C(=O)N2CCN(c3ncccn3)CC2)o1
→ ·, -11%
C=CCn1cnc2c(NCc3ccccc3)ncnc21
→ ·, -11%
COc1ccc(OC)c(CCNC(=O)C(C)n2c(C)c3cnn(-c4ccccc4)c(=O)c3c2C)c1 (stereo not given)
→ 3%, -2%
O=C(Nc1cccnc1)c1cccc([N+](=O)[O-])c1
→ i, -5%
Cc1ccc(C(c2nnnn2C(C)(C)C)N2CCN(C3CCCC3)CC2)cc1 (stereo not given)
→ ·, -2%
COc1ccc(/C(C)=N/NC(=O)c2nnn(-c3nonc3N)c2-c2ccccc2)cc1
→ -4%, -17%
COc1ccccc1CNC(=O)CSc1nnc(C)c2c(C)n(-c3ccccc3)nc12
→ -9%, -11%
COc1cccc(-c2nc(-c3cccs3)no2)c1
→ i, -5%
CCN(c1ccc(Cl)cc1)S(=O)(=O)c1nnc(NC(=O)c2ccccc2C)s1
→ -23%, -15%
O=C(c1ccc(-c2nc3ccccc3s2)o1)N1CCN(c2ccccc2O)CC1
→ -30%, -20%
Cc1ccccc1NC(=O)c1c(C)oc2ccc(O)c(CN3CCCCCC3)c12
→ ?, ?
CCOc1ccc(N2Cc3ccccc3C2)cc1
→ -9%, -1%
COc1ccc2cc(C(=O)N/N=C/c3sc4ccccc4c3O)ccc2c1
→ -28%, -18%
CCOC(=O)c1cc(C)n(CC2CCC(C(=O)Nc3ccc(C)cc3)CC2)c1C (stereo not given)
→ -27%, -30%
Cc1nc(N2CCc3ccccc3C2)[nH]c(=O)c1Cc1ccccc1
→ -1%, -4%
CCCc1nnc(NC(=O)Cn2cnc3ccccc3c2=O)s1
→ -13%, -5%
Nc1ncc2c(n1)CC(c1ccco1)CC2=O (stereo not given)
→ -5%, 3%
COc1ccc2c(C=O)c[nH]c2c1
→ 1%, -3%
O=C(NC1CCCC1)c1cc2nc(-c3ccco3)cc(C(F)(F)F)n2n1
→ 27%, -5%
COc1cc(/C=C/C(=O)OCC(=O)N(C)C2CCS(=O)(=O)C2)ccc1OC(F)F (stereo not given)
→ ?, ?
Cc1ccc(-n2c(/C=C\c3ccc(F)cc3)nc3ccccc3c2=O)cc1Cl
→ -11%, -12%
COC(=O)/C(=N/Nc1ccccc1)N1CCCc2ccccc21
→ i, -16%
O=C(Cc1ccccc1)NC1c2ccccc2-c2ccccc21
→ i, -8%
Cc1cc(NC(=O)COC(=O)c2ccc(Cl)cc2)no1
→ i, -2%
Cc1cc(C)c2c(C)c(C(=O)NCc3ccc(S(N)(=O)=O)cc3)oc2c1
→ i, -24%
CC(C)C(=O)Nc1ccc(N2CCN(C)CC2)c(F)c1
→ -12%, -9%
CCc1ccc2oc(-c3ccc(NC(=O)c4cc5ccccc5o4)cc3)nc2c1
→ ?, ?
N#CC(c1ccccc1)C(CC(=O)c1ccccc1)c1ccccc1 (stereo not given)
→ i, -14%
Cc1nc2cc(-c3ccccc3)ccc2o1
→ -10%, 3%
CC(=O)Nc1ccccc1-c1nc2ccccc2n(CC(=O)Nc2cccc(C(F)(F)F)c2)c1=O
→ -11%, -6%
CN1C(=S)N(c2ccccc2)C(=O)/C1=C/c1ccco1
→ -3%, -7%
O=Cc1cn(CC(=O)N2CCc3ccccc32)c2ccccc12
→ -5%, -8%
Cc1cc(-c2cc(C)c(N)cc2C)c(C)cc1N
→ -3%, -20%
CCCNC(=O)COC(=O)c1ccccc1OCc1ccc(Cl)cc1
→ -19%, -13%
CCc1ccc(NC(=O)c2sc3nc(C)cc(C)c3c2NC(=O)c2ccccc2)cc1
→ -1%, -7%
Cc1onc(-c2ccccc2)c1NC(=O)OC(C)c1cccnc1 (stereo not given)
→ -17%, -11%
Cc1cccc2cc3c(N)c(C(=O)Nc4ccc(N5CCOCC5)cc4)sc3nc12
→ i, -12%
CCN(C(=O)Cn1c(=O)oc2cc(S(=O)(=O)N3CCCCC3)ccc21)c1ccccc1
→ -19%, -3%
CC(C)c1onc(C(=O)NCc2ccccc2)c1[N+](=O)[O-]
→ ?, ?
N#CC1(NC(=O)CSc2nc3ccc([N+](=O)[O-])cc3s2)CCCCC1
→ -7%, -6%

Single records, from the list above:
Shown for `CC(=O)Nc1ccccc1-c1nc2ccccc2n(CC(=O)Nc2cccc(C(F)(F)F)c2)c1=O` = VACV mCherry inh: -11%; VACV Venus inh: -6%
Shown for `N#CC1(NC(=O)CSc2nc3ccc([N+](=O)[O-])cc3s2)CCCCC1` = VACV mCherry inh: -7%; VACV Venus inh: -6%
Shown for `Cc1onc(-c2ccccc2)c1NC(=O)OC(C)c1cccnc1` (stereo not given) = VACV mCherry inh: -17%; VACV Venus inh: -11%

Continued:
Results follow in this order: VACV mCherry inh, VACV Venus inh
CC(C)(C)NC(=O)/C(=C\c1ccco1)NC(=O)c1ccco1
→ -15%, 6%
Cn1cc(CN2CCC(N3CCNC(=O)CC3)CC2)c(-c2ccccc2F)n1
→ -14%, -5%
N#Cc1c2c(c(Cl)n3c1nc1ccccc13)CCCC2
→ -27%, ?
Cc1ccc2c(c1)N(C(=O)CCC(=O)NCc1cccnc1)CCO2
→ 6%, 4%
O=C(NC1C/C(=N/O)c2cc3c(cc21)OCO3)C(F)(F)F (stereo not given)
→ i, -10%
COc1ccc(CNC(=O)CCC(=O)N2CCN(C(C)=O)CC2)cc1
→ 8%, 12%
CCOc1cc(NC(=O)c2ccco2)c(OCC)cc1NC(=O)c1ccco1
→ -16%, -8%
COc1ccc(CCNC(=O)CCSc2nc(-c3ccco3)cc(C(F)(F)F)n2)cc1
→ -26%[1.46 µM], -15%
O=C1COc2ccc(S(=O)(=O)N3CCC(C(=O)NCc4ccccc4)CC3)cc2N1
→ -7%, -5%
CC1(C(=O)Nc2ccc(Cl)cc2)Cc2c(-c3cccc(C(F)(F)F)c3)ccnc2O1 (stereo not given)
→ 0%, -11%
CCN1CCN(c2ccc(N3CCN(S(=O)(=O)c4cc([N+](=O)[O-])ccc4C)CC3)nn2)CC1
→ -13%, -23%
CC(CCc1ccccc1)NC(=S)NC1CCCCC1 (stereo not given)
→ -7%, -10%
COCCNC(=O)CSc1nc2nn(-c3ccccc3)c(=O)c-2c2n1CCCCC2
→ 7%, 6%
Cc1ccc(S(=O)(=O)C2(C(=O)Nc3ccc(F)cc3)CC2)cc1
→ ·, -34%
O=C(c1ccc(-c2ccccc2)cc1)C1CCCN(Cc2ccncc2)C1 (stereo not given)
→ -14%, -17%
COc1ccc(/C=c2/sc3n(c2=O)NC2(c4ccccc4)N(C)C(=O)N(C)C2(c2ccccc2)N=3)cc1 (stereo not given)
→ ·, -10%
CC(C)(C)c1ccc(C(=O)NCCOc2ccccc2)cc1
→ -3%, -10%
Cn1cc(C=C2C(=O)CC(C)(C)CC2=O)c2ccccc21
→ -7%, -11%
C[C@@H]1CN([C@@H](C)CO)C(=O)CCCn2cc(nn2)CO[C@H]1CN(C)S(=O)(=O)c1cn(C)cn1
→ -1%, -12%
COC(=O)Cc1cc(=O)[nH]c(/N=C(\N)Nc2ccc(C)cc2C)n1
→ ·, -12%
COc1ccccc1OCCNC(=O)CNC(=O)c1ccc2c(c1)OCO2
→ -4%, -5%
CCOC(=O)c1ccccc1NC(=O)c1sc2ccccc2c1Cl
→ -10%, 4%
Nc1nc2c(ncn2[C@@H]2O[C@H](CNS(=O)(=O)C3CC3)[C@@H](O)[C@H]2O)c(=O)[nH]1
→ 4%, -4%
O=C(/C=C/c1ccccc1Cl)OCC(=O)N1CCc2ccccc21
→ i, -6%
O=C(NCc1nc2ccccc2[nH]1)C1=C[C@@H](c2ccc(C(F)(F)F)cc2)C[C@@H](OCCCCO)O1
→ -8%, ?
COc1ccc(O)c(/C=N/NC(=O)CN2CCS(=O)(=O)CC2)c1
→ 3.2µM*, -1%
CCOC(=O)c1[nH]c2c(OCC)nc(OCC)nc2c1Br
→ -18%, -15%
COC(=O)c1sccc1NC(=O)Nc1ccccc1C
→ -14%, 1%
CCc1ccc(OCC(=O)O/N=C(\N)c2ccncc2)c(Br)c1
→ i, -2%
O=C(Cn1nnc(-c2ccccc2)n1)N/N=C/c1cc([N+](=O)[O-])c(Cl)cc1Cl
→ i, -3%
Cc1cccn2cc(-c3cc4ccccc4oc3=O)nc12
→ 5%, 2%
COc1ccc(NC(=O)C(C)N2Cc3ccccc3C2=O)cc1OC (stereo not given)
→ -9%, -9%
Cc1ccc(SCCN2CCN(CC(C)C)CCC2=O)cc1
→ -20%, -10%
O=C(NCCCN1CCN(c2ccc(F)cc2)CC1)C1COc2ccccc2C1 (stereo not given)
→ -18%, -21%
OCC1(CCc2ccccc2)CCN(Cc2cccn2-c2cccnc2)CC1
→ -8%, -21%
CCn1cc(/C=C2\SC(=O)N(CC(=O)Nc3ccc4c(c3)OCO4)C2=O)c2ccccc21
→ i, -16%
Cc1ccc(S(=O)(=O)N(C)CCCC(=O)Nc2cc(C)ccc2C)cc1
→ ?, ?
CCOc1ccc(C(=O)Nc2ccc(-n3nncc3-c3ccc(OC)cc3)cc2)cc1
→ -16%, -23%
Cc1cccc(C)c1NC(=O)CNC(=O)CCC(=O)N1CCOCC1
→ i, -11%
O=C(CN(Cc1ccc(F)cc1)C(=O)CNS(=O)(=O)c1ccc(F)cc1)NCc1ccco1
→ i, -5%
COc1ccc(CCNC(=O)c2cc3c(=O)n4ccccc4nc3n(CCN3CCOCC3)c2=N)cc1
→ -3%, -9%
COC(=O)c1cc(NC(=S)NCc2ccc(Cl)cc2)cc(C(=O)OC)c1
→ i, -2%
CN(C)c1cccc(C(=O)OCC(=O)N(C)c2ccccc2)c1
→ ?, -5%
COc1ccc(/C=N/n2cncn2)cc1COc1ccc(NC(C)=O)cc1
→ i, -5%
Cc1ccc(S(=O)(=O)/N=C(\c2ccc(Cl)cc2)N2CCOCC2)cc1
→ ·, -6%
O=C1c2ccccc2C(=O)N1Cc1nc2ccccc2c(=O)n1CCCn1ccnc1
→ i, -10%
O=C(O)CCC(=O)NNC(=O)c1cccs1
→ -2%, -3%
CCCn1nnnc1SCC(=O)N(C(C)C)C(C)C
→ -2%, 1%
C[n+]1ccccc1C1CCCC/C1=N\Nc1ccc([N+](=O)[O-])cc1[N+](=O)[O-] (stereo not given)
→ i, -14%
COc1ccc(-c2cc(C(F)(F)F)nc(S(=O)(=O)CCCC(=O)Nc3cccnc3Cl)n2)cc1OC
→ ?, ?
CCCCNC(=O)CSc1nc2ccc(NC(=O)CSc3nnc(N)s3)cc2s1
→ -25%, -25%
NC(=O)NCC(=O)N1CCC(C(O)(c2ccccc2)c2ccccc2)CC1
→ i, -8%
CC(=O)NC(Cc1ccc(C(C)C)cc1)C(=O)NC1CCN(c2nc(C)cc(C)n2)CC1 (stereo not given)
→ -13%, -9%
